TRPV1 potentiator = HTS Assay for Compounds that Act as Potentiators of the Vanilloid Receptor 1; Transient receptor potential cation channel subfamily V member 1 (Homo sapiens), Q8NER1; actives 0.02% (n = 320,000); potentiation, % at 8.33 µM; AID 540277, 2011; TRPV1-expressing cells, Fluo-8 calcium influx, capsaicin EC20 potentiation; host cell line not named in the record; control for the full effect not named in the record; active means potentiation above 80%; inconclusive means 30% to 80%; inactive means below 30%; also: 0% is about no effect
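Cells expressing TRPV1 were dye-loaded with Fluo-8 and read kinetically: 10 s baseline, 3 min after compound (agonist portion), then 2 min after EC20 capsaicin (allosteric enhancer portion). Calcium-bound dye fluorescence at 480/520 nm.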
PINK1 modulator = A Quantitative High throughput Screen to Identify Chemical Modulators of PINK1 Expression. actives 0.2% (n = 410,000). PINK1 immunofluorescence, high-content cytometry, 24 h. Potency, µM (series often up to 76.6 µM), inactives show top-dose activation (PINK1 increase), actives largely listed as activators; active = well fitted activation curve with a large enough effect; inconclusive = small, poorly fitted or top-dose-only effect; inactive = flat fitted curve, though single readings scatter; cell line not stated here;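 also: potency is read from the fitted curve at half-maximal effect; % of control where 0% means no effect; nearly all actives have a fitted effect of over 65% in size; a mitochondrial uncoupler was the plate control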
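Decision-based qHTS: stable cells, 24 h exposure to five compound concentrations, CCCP as control. Fixed cells stained for PINK1 plus nuclear, mitochondrial and cell markers, cytometer read.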
TRPML1 agonist = qHTS for Agonists of the Human Mucolipin Transient Receptor Potential 1 (TRPML1); activation, % (concentration not given with the values); TRPML1-expressing cells, Ca2+ dye fluorescence, FDSS; host cell line not named in the record; reference of the full effect not given here; actives 0.12% (n = 410,000); AID 624414, 2012; in the data active = activation above about 50%; inconclusive = about 30% to 50%; inactive = below about 30%; also: 0% is about no effect; the text of the record puts the active cut at 80%
Target sequence (Q9GZU1 whole entry, looked up): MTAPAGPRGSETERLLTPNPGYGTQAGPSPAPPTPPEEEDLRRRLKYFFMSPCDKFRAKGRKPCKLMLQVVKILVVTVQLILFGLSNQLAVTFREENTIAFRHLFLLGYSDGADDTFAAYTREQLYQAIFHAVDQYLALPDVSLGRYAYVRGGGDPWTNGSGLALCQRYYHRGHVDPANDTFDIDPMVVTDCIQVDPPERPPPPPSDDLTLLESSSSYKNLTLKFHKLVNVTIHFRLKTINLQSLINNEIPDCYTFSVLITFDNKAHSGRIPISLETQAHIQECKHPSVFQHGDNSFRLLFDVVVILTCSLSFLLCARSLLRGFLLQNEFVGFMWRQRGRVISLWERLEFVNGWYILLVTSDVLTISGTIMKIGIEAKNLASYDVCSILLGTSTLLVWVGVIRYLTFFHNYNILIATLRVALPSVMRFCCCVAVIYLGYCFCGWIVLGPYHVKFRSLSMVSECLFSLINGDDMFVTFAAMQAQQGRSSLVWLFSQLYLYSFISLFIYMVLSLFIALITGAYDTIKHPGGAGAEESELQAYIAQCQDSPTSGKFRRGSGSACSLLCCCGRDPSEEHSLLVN
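Calcium fluorescence on an FDSS kinetic reader gave the read-out. Tet-induced TRPML1-DL cells were plated overnight, dye-loaded (Ca8 with quencher, 45-90 min, room temperature, dark), then read 110 s after compound addition, and again 110 s after 4uM final 54-4 (EC80).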
Sfp PPTase inh = qHTS Assay for Inhibitors of Bacillus subtilis Sfp phosphopantetheinyl transferase (PPTase); 4'-phosphopantetheinyl transferase ffp (Bacillus subtilis), Q9F4F7; Biochemical Sfp PPTase activity, qHTS; Potency, µM, inactives show max response, negative = inhibition, actives largely listed as inhibitors; actives 3.5% (n = 310,000); active = well fitted inhibition curve with a large enough effect; inconclusive = small, poorly fitted or top-dose-only effect, or another doubt; inactive = no such curve, though single readings can be large or run the other way;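 also: the enzyme is Sfp with the accession as filed and its product quenches rhodamine fluorescence; potency is read from the fitted curve at half-maximal effect; 0% = enzyme reaction without inhibitor and -100% = no enzyme wells; top concentration of the series not given in the record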
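Sfp 15 nM + cpd, 15 min RT; start w/ rhodamine-CoA 5 uM, BHQ-2-YbbR 12.5 uM (final); 50 mM Hepes pH 7.6, 10 mM MgCl2, 0.01% NP-40, 0.01% BSA; read 525/598 nm at 0 and 30 min.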
TRPML1 inh = qHTS for Inhibitors of the Human Mucolipin Transient Receptor Potential 1 (TRPML1); Mucolipin-1 (Homo sapiens), Q9GZU1; TRPML1-inducible cells, Ca2+ dye fluorescence, FDSS; stronger effect = lower value; inhibition of EC80 agonist-evoked calcium signal; activity change, negative = inhibition, % (concentration not given with the values); actives 0.02% (n = 390,000); AID 624415, 2012; in the data active means activity change below about -50%; inconclusive means about -30% to -50%; inactive means above about -30%;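 also: stimulus is agonist 54-4 at its EC80 concentration; % is scaled to controls: 0 for no effect and ±100 for the full control effect; compound concentration not given in the record; the text of the record puts the active cut at -80%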
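Tet-induced TRPML1-DL cells loaded with Ca8 no-wash calcium dye were read kinetically on FDSS. Compound addition was followed by EC80 agonist 54-4 (4 uM final); inhibition was read over 110 s.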
Menin-MLL FL inh = qHTS Assay for Inhibitors Targeting the Menin-MLL Interaction in MLL Related Leukemias: Competition With Fluorescein Labeled MLL-derived Peptide. 290,000 tested, under 10 active. FP activity change, % at 61.4 µM. Fluorescence polarization, fluorescein-MLL peptide displacement from menin; inconclusive = falling polarisation curve, or a change in total fluorescence; inactive = total fluorescence flat and polarisation flat or rising; no compound was filed as active; the % refers to the polarisation; negative = inhibition;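 also: % of control where 0% means no effect; inhibitors lower the polarisation; unlabelled MLL peptide was the positive control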
ClpP mod = qHTS Assay for Activators of ClpP. actives 1.9% (n = 340,000). Potency, µM (titrated, usually from 57.5 µM), for inactives: at the top dose activity change, negative = active. AID 651965, 2013. purified B. subtilis ClpP, FRET peptide cleavage, 20 min; active = well fitted falling curve with a large enough effect; inconclusive = small, poorly fitted or top-dose-only effect; inactive = no such curve, though single readings can be large or run the other way; also: potency is read from the fitted curve at half-maximal effect; the source files actives as falling curves though it sought activators and does not explain the sign; nearly all actives have a fitted effect of over 65% in size; many hits overshoot -100%
Target sequence (P80244 whole entry, looked up): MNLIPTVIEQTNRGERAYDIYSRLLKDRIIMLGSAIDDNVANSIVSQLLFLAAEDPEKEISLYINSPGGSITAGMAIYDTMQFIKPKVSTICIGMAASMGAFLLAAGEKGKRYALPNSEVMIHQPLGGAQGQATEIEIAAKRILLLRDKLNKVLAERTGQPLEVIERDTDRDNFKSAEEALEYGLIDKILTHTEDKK
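Buffer: 100 mM Tris/HCl pH8, 100 mM KCl, 0.05% low protease BSA, 2.5% glycerol, 0.01% Tween-20. ClpP 10 microg/mL final; 20 min RT; delta FRET normalized to ADEP and DMSO controls.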
The depositor's hits bear a star; ? = inconclusive; . = no result given; & = joins results of further samples; [ ] = another dose, or the depositor's remark.

SMILES | TRPV1 potentiator | PINK1 modulator | TRPML1 agonist | Sfp PPTase inh | TRPML1 inh | Menin-MLL FL inh | ClpP mod
Cn1c(-c2cccs2)[n+](C)c2ccccc21 | 6 | 0.0% | -0.3 | -9% | 1 | -0.9 | .
Cc1ccc(CC(NC(=O)c2ccccc2)C(=O)NC(C)C(=O)O)cc1 (configuration not stated) | 9 | 1.8%[38.3 µM] | 0.1 | 17% | -10 | 0.7 | -4.2%
CCCCn1c(N)c(N(CC(C)C)C(=O)c2cc(-c3ccc(OC)cc3)nc3ccccc23)c(=O)[nH]c1=O | . | 4.3% | -0.6 | . | -3 | . | -7.0%
COc1ccc(C(=O)Nc2cccc(NC(=O)c3ccc(OC)cc3OC)n2)c(OC)c1 | . | 4.1% | -1.0 | . | 11 | . | 8.0%
Cn1nc(C(F)(F)F)c(C(=O)Nc2cccc(C(F)(F)F)c2)c1SCc1ccc(Cl)cc1 | -4 | ? | 3.4 | 34%[activator] | 72 | -1.0 | 0.2%
COc1ccc(Cl)cc1N1C(=O)C2CCCN2C1c1ccc(F)c(F)c1 (configuration not stated) | . | 1.1% | 0.6 | -3% | -8 | -1.6 | 0.1%
O=C(c1ccco1)N1CCN(Cc2cc(=O)c(OCc3cccc(Cl)c3)co2)CC1 | 0 | 4.9% | -0.8 | . | 1 | . | .
CCC(=O)N/N=C/c1ccc(-c2ccc(Cl)cc2)o1 | -7 | 2.4% | 1.6 | 3% | -23 | 3.4 | 1.2%
O=C(NCC1COc2ccccc2O1)c1ccc(NC(=O)c2ccco2)cc1 (configuration not stated) | 8 | 6.2% | 1.2 | 0% | 0 | 4.5 | ?
N/C(=N\OC(=O)CCC1CCCC1)c1ccc(Cl)cc1 | 6 | 3.9% | 0.8 | 0% | 1 | . | -3.5%
O=[N+]([O-])c1cc(Cl)c(Cl)c(Cl)c1Cl | -2 | 2.1% | -0.3 | . | 17 | . | -1.9%
COc1ccc2c(c1)cc1c(=O)n(CC(=O)NCCCOC(C)C)nc(C)n12 | -5 | -0.7%&0.2% | 2.5&0.2 | 8% | -15&-3 | -4.6 | ?
C=CCn1c(CCNC(=O)c2ccccc2F)nnc1SCC(=O)Nc1ccc(OC)cc1 | 10 | 1.9% | 0.4 | 7% | 16 | 0.7 | -1.0%
CCC(C)(C)NC(=O)C(c1ccccc1F)N(C(=O)c1ccn[nH]1)c1ccccc1 (configuration not stated) | -8 | 0.1% | 0.3 | 20% | 5 | 4.8 | 1.1%
CCCCCCCC1CC(CSc2ncn[nH]2)OC1=O (configuration not stated) | -8 | 0.5% | -1.1 | 14% | 4 | 0.0 | 0.2%
CCN(CC(=O)NC(C)C)Cc1nc2c(Br)cc(Br)cc2c(=O)[nH]1 | 4 | 4.9% | -0.4 | 7% | -2 | 4.9 | -0.7%
O=C1c2ccc(Oc3ccc4c(c3)C(=O)N(CCCO)C4=O)cc2C(=O)N1CCCO | -14 | -3.5% | 0.6 | 1% | -4 | 1.5 | -3.8%
CCCNS(=O)(=O)c1cc2c3c(c1)C(C)C(=O)N3CCC2 (configuration not stated) | -8 | -1.7% | 0.3 | 11% | -1 | 6.4 | -2.2%
O=C(CNC(=O)c1cccs1)OCC(=O)c1ccccc1Cl | 13 | 1.4% | 0.1 | 11% | 11 | 2.5 | .
CC(C)N(Cc1nccn1C)C(=O)c1ccc2oc(CCCc3ccccc3)nc2c1 | 24 | -2.1% | 0.3 | 4% | 11 | . | 0.8%
COc1ccc(C(c2sc3nc(C)nn3c2O)N2CCC(C(N)=O)CC2)cc1OC (configuration not stated) | 5 | 2.4% | 0.2 | 5% | -7 | 2.5 | 0.0%
C(=N\N1CCN(c2ccccc2)CC1)/c1ccccc1 | 7 | 4.0% | 0.6 | 19% | 0 | -5.0 | 0.5%
CCCCn1c(=N)n(CC(=O)c2ccc(Br)s2)c2ccccc21 | 7 | 0.1% | 0.0 | ? | 1 | -3.5 | 0.6%
COc1cccc(C(=O)/C=C2\Sc3ccccc3N2C)c1 | -9 | 0.0% | 1.3 | -11% | 4 | -2.8 | .
CC(C)(C)C(=O)Nc1ccc(C(=O)N/N=C/c2ccccc2OC(=O)c2ccc(Cl)cc2Cl)cc1 | -3 | 1.4% | 0.2 | 31%[activator] | 3 | 2.1 | -2.0%
CCOc1ccc(C(Nc2cccnc2)c2cc(Cl)c3cccnc3c2O)cc1 (configuration not stated) | 2 | 14%&0.4% | 1.0&0.8 | ? | -8 | ? | 3.6%
Cc1cccc(-n2c(Cc3cc(=O)[nH]c(=O)[nH]3)nnc2SC(C)C)c1 | -5 | 1.0% | -0.4 | 5% | -4 | 0.8 | 3.2%
COc1ccc(-c2nc(N)ncc2-c2ccc(OC)c(OC)c2)c(O)c1 | -12 | 3.6% | 0.0 | -28% | -1 | 5.2 | -2.6%
CCCc1cc(=O)[nH]c(SCC(=O)Nc2cc(S(=O)(=O)N3CCCCC3)ccc2Cl)n1 | . | 1.8% | 0.3 | . | 5 | . | -2.1%
O=C(CN1CCC(NC(=O)c2ccco2)CC1)Nc1cccc2ccccc12 | 2 | 0.0% | -0.7 | 23% | 12 | 4.5 | -2.4%
Brc1nnc2n1-c1ccccc1Sc1ccccc1-2 | -3 | -1.2% | -0.4 | 1% | -1 | -0.3 | -1.1%
O=C(CSCc1ccco1)Nc1cc(C(F)(F)F)ccc1N1CCOCC1 | -14 | 0.4%[38.3 µM] | 0.3 | 56µM* | 3 | 4.5 | -0.2%
Cc1ccc(Sc2ncccc2C(=O)NCc2cc([N+](=O)[O-])ccc2O)c(C)c1 | -3 | 1.0% | -0.3 | -3% | -7 | . | 2.2%
CCOc1ccc(CN2CCNC(=O)C2CC(=O)NCc2ccccn2)cc1 (configuration not stated) | 3 | 3.4% | -0.4 | 10% | -2 | -19 | .
Cc1ccc(C(=O)CSc2nc3ccc(C(=O)NCCN4CCCCC4)cc3c(=O)[nH]2)cc1 | ? | -0.1% | -0.2 | -12% | -9 | 6.6 | -12%
COc1cc(C)c(-c2cc(C(=O)O)c(C)o2)cc1C(C)C | -2 | -0.6% | -0.1 | -9% | -7 | 0.3 | -16%
CCCCCCNC(=O)c1cc(-c2ccco2)nc2ccccc12 | 0 | -0.2% | 0.5 | ? | 5 | 3.1 | ?
O=C(CCl)N(O)c1ccc(C=Cc2ccccc2)cc1 | . | -3.6% | -0.6 | . | 6 | . | 0.6%
Cc1cccc(COc2ccc(/C=N/NC(=O)c3nnn(-c4nonc4N)c3C)cc2)c1 | -12 | -0.1% | 0.9 | 29% | 20 | . | -5.5%
CC(C)CN1CCC(=O)N([C@H](CSc2ccc(Br)cc2)c2ccccc2)CC1 | 16 | 7.0% | -0.4 | 9% | 6 | 4.8 | -2.0%
Cc1cc2oc(=O)cc(COC(=O)Cn3cnnn3)c2cc1C(C)C | 8 | 1.3%[38.3 µM] | -0.6 | 5% | 37 | -1.5 | -11%
Cc1ccnc(SCC(=O)c2cccs2)n1 | -1 | 0.8% | -0.1 | -16% | 2 | -0.2 | .
CCS(=O)(=O)N1CCN(C2CCC(c3ccccc3)CC2)CC1 (configuration not stated) | -13 | . | . | ? | . | -0.7 | .
COc1cc(C(=O)N2CCCCC2c2cc(C(=O)NC(C)C)no2)cc(OC)c1C (configuration not stated) | . | 1.3% | -0.5 | . | . | . | 1.1%
Cc1ccc(CNC(=O)C2CCCN(S(=O)(=O)c3ccc(-n4cnnn4)cc3)C2)cc1 (configuration not stated) | 4 | 8.8% | 0.8 | -3% | 13 | . | .
O=C(CN1C(=O)CSc2ccc(S(=O)(=O)N3CCCCC3)cc21)NCc1ccccc1 | ? | -1.1% | 0.3 | 2% | 10 | . | -1.0%
O=C(Nc1ccccc1C(=O)O)c1cccc(NS(=O)(=O)c2ccc(Br)cc2)c1 | -9 | 2.5% | . | 16% | . | -2.8 | -2.1%
COc1cc2c(cc1NC(=O)COc1ccc(Cl)cc1)oc1ccccc12 | . | 0.6% | -0.2 | . | 20 | . | ?
O=C(Nc1nnc(-c2ccncc2)o1)c1ccccc1F | 3 | 0.9% | -0.7 | -30% | 43 | -3.0 | 1.9%
CN(c1ccccc1)S(=O)(=O)c1ccc(C(=O)NCCc2ccc(F)cc2)cc1 | -9 | 0.1% | 0.5 | 2% | 14 | 2.4 | .
Other compounds:
SMILES | TRPV1 potentiator | PINK1 modulator | TRPML1 agonist | Sfp PPTase inh | TRPML1 inh | Menin-MLL FL inh | ClpP mod
Cc1ccc(S(=O)(=O)c2nc(-c3cccc(Cl)c3)oc2NCc2ccccc2)cc1 | . | 4.0% | -0.1 | . | 5 | . | ?
Cc1ccccc1C(=O)Nc1ccccc1C(=O)OCc1cc(=O)n2ccsc2n1 | . | 2.5% | -0.6 | . | -7 | . | -5.8%
O=C(CN1CCCCC1)N1CCCc2ccccc21 | 7 | 1.6%[38.3 µM] | 0.2 | -11% | 1 | 1.2 | 0.4%
COC(=O)c1ccccc1NC(=O)c1c(O)c2c([nH]c1=O)CCCC2 | 1 | 3.2% | 1.4 | -2% | -11 | 2.6 | -5.4%
Nc1[nH]c(=O)nc(Nc2ccccc2)c1N=O | . | -0.9% | 2.4 | . | ? | . | .
COc1ccc(N(CC(=O)N2CCN(c3cccc(Cl)c3)CC2)S(=O)(=O)c2c(C)noc2C)cc1 | ? | -0.3%&1.5% | 0.0&-0.5 | 17% | -9&-15 | . | -0.5%&-3.1%
CC(C)(C)[C@@H]1COC(=O)[C@H](Cc2ccc(F)cc2)CC/C=C\C[C@@H](CC(=O)N(CCO)Cc2ccccc2)C(=O)N1 | . | 0.3% | -0.8 | . | -3 | . | 2.5%
